# TRPML1 blocker = qHTS for Inhibitors of the Human Mucolipin Transient Receptor Potential 1 (TRPML1); 0.02% of 390,000 active; TRPML1-inducible cells, Ca2+ dye fluorescence, FDSS; stronger effect = lower value; inhibition of EC80 agonist-evoked calcium signal; activity change, negative = inhibition, % (no concentration beside the values); in the data active means activity change below about -50%; inconclusive means about -30% to -50%; inactive means above about -30%;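 also: stimulus is agonist 54-4 at its EC80 concentration; % is scaled to controls: 0 for no effect and ±100 for the full control effect; compound concentration not given in the record; the text of the record puts the active cut at -80%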
# Target sequence (Q9GZU1 whole entry, looked up): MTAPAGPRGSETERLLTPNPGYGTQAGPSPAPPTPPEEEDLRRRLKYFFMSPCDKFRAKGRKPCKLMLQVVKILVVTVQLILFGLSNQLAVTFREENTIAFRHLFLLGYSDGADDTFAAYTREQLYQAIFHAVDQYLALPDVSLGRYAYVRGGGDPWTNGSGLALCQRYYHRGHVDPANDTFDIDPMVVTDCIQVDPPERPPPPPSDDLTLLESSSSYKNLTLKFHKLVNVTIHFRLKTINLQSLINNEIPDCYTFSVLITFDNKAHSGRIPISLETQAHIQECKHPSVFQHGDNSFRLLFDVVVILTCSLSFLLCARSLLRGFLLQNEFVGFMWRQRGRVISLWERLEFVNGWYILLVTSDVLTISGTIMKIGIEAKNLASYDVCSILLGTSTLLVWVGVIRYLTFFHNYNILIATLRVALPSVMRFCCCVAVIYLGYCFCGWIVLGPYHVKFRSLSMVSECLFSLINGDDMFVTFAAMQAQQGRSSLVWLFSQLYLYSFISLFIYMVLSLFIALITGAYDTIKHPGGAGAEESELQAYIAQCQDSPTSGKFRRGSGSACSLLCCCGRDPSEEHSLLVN
#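 Calcium fluorescence in TRPML1-DL cells induced overnight with Tet: a 110 s read after compound pin addition, then a 110 s antagonist read after challenge with 54-4 at 4 uM final (EC80).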
# TRPML1 agonist = qHTS for Agonists of the Human Mucolipin Transient Receptor Potential 1 (TRPML1); Mucolipin-1 (Homo sapiens), Q9GZU1; TRPML1-expressing cells, Ca2+ dye fluorescence, FDSS; host cell line not named in the record; reference of the full effect not given here; activation, % (test concentration not listed); 0.12% of 410,000 active; AID 624414, 2012; in the data active = activation above about 50%; inconclusive = about 30% to 50%; inactive = below about 30%; also: 0% is about no effect; the text of the record puts the active cut at 80%
#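 Cells: TRPML1-DL, 1X Tet inducer, ~16 h at 37 degrees C/5% CO2. Dye: ABD Ca8 no-wash + quencher, 45-90 min RT. Read: 10 s baseline, compound add, 110 s agonist phase; 54-4 EC80 (4uM final), 110 s antagonist phase.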
# Six1-Eya2 blk = qHTS Assay for Inhibitors of the Six1/Eya2 Interaction; Homeobox protein SIX1 (Homo sapiens) + Protein phosphatase EYA2 (Homo sapiens), …; AlphaScreen GST-Six1/His-Eya2 binding, biochemical; stronger effect = lower value; control for the full effect not named in the record; activity change, % (test concentration not listed); 0.56% of 360,000 active; AID 651725, 2012; in the data active = activity change below about -65%; inconclusive = about -30% to -65%; inactive = above about -30%; also: % is scaled to controls: 0 for no effect and ±100 for the full control effect; compound concentration not given in the record
#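 AlphaScreen with GST-Six1 and His-Eya2 (5X mix: 250 nM and 500 nM), glutathione donor and nickel acceptor beads; buffer 50 mM Tris pH 8.0, 300 mM NaCl, 1 mM TCEP; 1 h at 37 C in the dark.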
# CtBP-E1A blk = qHTS Assay for Inhibitors of the CtBP/E1A Interaction; CtBP / adenovirus E1A interaction (AlphaScreen); AlphaScreen GST-E1A/His-CtBP binding, 1536-well; stronger effect = lower value; control for the full effect not named in the record; activity change, % (no concentration beside the values); 0.49% of 340,000 active; AID 651724, 2012; in the data active means activity change below about -65%; inconclusive means about -30% to -65%; inactive means above about -30%; also: % is scaled to controls: 0 for no effect and ±100 for the full control effect; compound concentration not given in the record
#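 In 5 uL wells, 23 nL compound meets equimolar GST-E1A and His-CtBP (5X stock 125 nM each) for 2 h, 37 °C. Beads (5X, 50 ug/mL) then 1 h, 37 °C, dark.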
# PINK1 expr mod = A Quantitative High throughput Screen to Identify Chemical Modulators of PINK1 Expression. PINK1 immunofluorescence, high-content cytometry, 24 h. Potency, µM (series often up to 76.6 µM), for the others: top-dose activation (PINK1 increase), most hits filed as activators. 0.2% of 410,000 active. AID 624263, 2012; active = well fitted activation curve with a large enough effect; inconclusive = small, poorly fitted or top-dose-only effect; inactive = flat fitted curve, though single readings scatter; cell line not stated here;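 also: potency is read from the fitted curve at half-maximal effect; % of control where 0% means no effect; nearly all actives have a fitted effect of over 65% in size; a mitochondrial uncoupler was the plate control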
#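 Readout is PINK1 immunofluorescence, quantified alongside mitochondrial, cell and nuclear markers by laser-scanning microplate cytometry. Cells from a stable line were exposed to compound titrations (5 concentrations) for 24 hours, with CCCP controls.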
# D2 ag = Beta-Arrestin HTS for Positive Allosteric Modulators of the Human D2 Dopamine Receptor: Agonists | D(2) dopamine receptor (Homo sapiens), P14416 | DiscoveRx PathHunter D2 beta-arrestin, luminescence, 90 min; 100% = 57 uM dopamine signal | activation, % (test concentration not listed) | 0.084% of 360,000 active | AID 624465, 2012; in the data active = activation above about 40%; inconclusive = about 15% to 40%; inactive = below about 15%; also: compound concentration not given in the record; the text of the record calls up to 30% inactive
# Target sequence (P14416 whole entry, looked up): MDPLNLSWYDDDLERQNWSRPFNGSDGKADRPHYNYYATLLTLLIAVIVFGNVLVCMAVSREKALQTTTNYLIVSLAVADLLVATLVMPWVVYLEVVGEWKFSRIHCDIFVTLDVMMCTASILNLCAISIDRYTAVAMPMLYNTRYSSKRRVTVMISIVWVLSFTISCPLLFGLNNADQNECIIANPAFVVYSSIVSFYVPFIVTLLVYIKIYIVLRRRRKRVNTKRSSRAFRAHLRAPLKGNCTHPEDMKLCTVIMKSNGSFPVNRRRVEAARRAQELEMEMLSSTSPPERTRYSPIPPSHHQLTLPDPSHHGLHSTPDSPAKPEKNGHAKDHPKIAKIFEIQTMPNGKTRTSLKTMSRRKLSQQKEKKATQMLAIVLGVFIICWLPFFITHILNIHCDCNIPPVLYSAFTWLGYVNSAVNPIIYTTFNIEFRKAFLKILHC
#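 DiscoveRx PathHunter D2 beta-arrestin cells (2,100/well) attached overnight, then compound-stimulated 90 min at 37 C in HBSS/10 mM HEPES/0.1% Tween-20 buffer; beta-galactosidase complementation read by luminescence after 1 h at ambient temperature. Dopamine 57 uM final (EC100) as control.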
# Starred values were filed as active, the others as inactive; x = not tested or not shown; & = joins results of further samples; [ ] = remark or other dose. Compounds as they come, and some 1% of all compounds hit somewhere here.
# Each structure is followed by: TRPML1 blocker, TRPML1 agonist, Six1-Eya2 blk, CtBP-E1A blk, PINK1 expr mod, D2 ag
C#CCNC(=O)C1=C[C@H](c2ccc(Br)cc2)[C@@H](CCCO)[C@H](OCC)O1
 : -17.9, -0.6, -0.1, 3.1, 1.0%, 1.7
COCc1ccc(CN2CCC(n3nccc3NC(=O)C(OC)c3ccccc3)CC2)o1 (stereo not drawn)
 : -2.7, 1.0, 5.2, -13.4, 2.2%, -2.0
Cc1ccc(C(=O)CC(C(=O)O)P(=O)(c2ccccc2)c2ccccc2)cc1 (stereo not drawn)
 : 2.0, -0.1, 3.1, -2.1, 0.7%, -3.1
FC(F)(F)c1n[nH]c(=S)n1/N=C/c1ccco1
 : 2.6, -0.2, 2.6, 4.9, 1.0%, -20.3
CCN(c1ccccc1)S(=O)(=O)c1ccc2c(c1)N(C(C)=O)CCS2
 : -10.3, -1.1, -2.4, -1.3, 0.4%, -4.1
COC(=O)c1ccccc1NC(=O)c1cc[n+]([O-])cc1
 : 4.3, 1.4, 7.3, x, 0.1%, -1.6
CN1CCC(OC(=O)c2cccc(Cl)c2)CC1
 : 12.8, 1.3, 1.9, 6.5, -1.1%, -1.3
Cc1nc(N)[nH]c(=O)c1CCCNc1ccc(CCCCC2(CCl)OCCO2)cc1
 : -5.4, 1.0, -4.4, -10.3, 8.6%, 4.7
O=C(NC(N1CCCC1)C(Cl)(Cl)Cl)c1ccccc1 (stereo not drawn)
 : 20.9, -0.8, 3.8, 0.6, 0.2%, -2.1
COc1nccc(Nc2ccccc2)c1C#N
 : -20.1, 0.4, 0.0, 11.7, -1.4%, -4.9
COc1cc(O)c(C(CC(=O)N2CCN(c3ccccc3)CC2)c2cc(OC)c(OC)c(OC)c2)c(OC)c1 (stereo not drawn)
 : -12.4&0.9, 1.6&2.1, 7.1, 23.8, 1.1%, -2.1
COc1cccc(C(=O)NCC(=O)n2nc(C)cc2C)c1
 : -1.4, -0.4, -5.6, 4.9, 0.7%, -2.9
CCOC(=O)c1c(SCCN2CCCC2)n(-c2ccccc2)c(=S)n(-c2ccccc2)c1=O
 : -9.7, 0.7, 8.0, -5.3, 0.7%, -1.1
COc1ccc(CCNc2cc(C)nc3c(-c4ccccc4)cnn23)cc1OC
 : -0.4, 2.4, 26.2, 39.0, 2.5%, -0.8
CCC(=O)Nc1cccc2ccccc12
 : -9.6, 0.6, 2.8, 8.5, -0.2%, -2.6
Cn1ncc(N=Cc2c(O)ccc3ccccc23)c1C(=O)Nc1cccc(Cl)c1
 : -13.9, 0.1, -0.8, -1.6, -2.1%, 4.5
CC(=O)N1CCN(c2ccc(S(=O)(=O)N3CCCCC3)cc2[N+](=O)[O-])CC1
 : 0.3, 0.0, -1.7, 4.2, 0.1%, -0.8
CC(C)Cc1cc(C(=O)NCc2ccco2)no1
 : -18.7, 0.2, -2.9, -20.0, -0.9%, -1.2
Cc1c(CC(=O)NCCc2ccccc2F)c(=O)oc2c(C)c3occ(C(C)(C)C)c3cc12
 : 15.4, 0.8, x, x, 0.7%, x
CC(C)(C)c1ccc(-n2ncc3c2CCCC3NC(=O)CCn2cncn2)cc1 (stereo not drawn)
 : -0.5, 0.8, 2.5, 2.5, 2.9%, 3.2
Nc1nnc(SCC(=O)OCC(=O)c2ccccc2)s1
 : -4.7, 0.0, 2.5, 6.9, -0.7%, -1.9
COCc1nnc(NS(=O)(=O)c2ccc(OC)cc2)s1
 : 4.7, 0.1, 9.4, x, -0.1%, -4.5
COc1ccc(/C=C(/NC(=O)c2ccccc2)C(=O)N2CCCC2)cc1
 : -7.3, 1.0, 0.9, 13.4, 0.5%, -0.9
CCC(=O)N1c2ccccc2CC1C(=O)NCCc1ccc(OC)cc1OC (stereo not drawn)
 : -4.7, 0.3, x, x, 2.4%, x
CC(=O)N1CC(C)Oc2ccc(S(=O)(=O)NC(CC(=O)O)c3cc(C)ccc3C)cc21 (stereo not drawn)
 : -14.5, -0.4, 5.2, 0.5, 0.7%, -2.2
CC(c1ccccc1)N1C(=O)c2cccnc2C1=O (stereo not drawn)
 : 11.4, -0.1, 4.9, 3.1, -1.1%, -2.4
CCCCn1c(SCC(=O)c2ccccc2)nc2c1c(=O)[nH]c(=O)n2C
 : -13.3, 0.0, 7.7, 5.4, 3.0%, -4.4
COc1ccc(CC(=O)Nc2cc(C)ccc2O)cc1OC
 : 21.4, -0.3, -5.2, -4.4, 1.5%, -2.5
N#CCSc1nnc2c(Cl)cc(Cl)cn12
 : -14.4, 0.6, -1.8, -5.5, 4.1%[38.3 µM], -2.3
O=C(COC(=O)/C=C/c1cccc(Br)c1)Nc1cccc(S(=O)(=O)NC2=NCCC2)c1
 : 10.9, 1.4, -19.9, x, -0.4%, -3.2
CCOC(=O)c1cnn(-c2nc(OCC)cc(OCC)n2)c1C
 : 18.3, 1.1, -6.4, -16.7, 0.3%, -6.9
O=C1CC(c2ccco2)CC2=C1C(c1ccc(O)cc1)n1nc(C(F)(F)F)nc1N2 (stereo not drawn)
 : -25.3, 1.0, x, x, -0.8%, x
O=C(COC(=O)c1ccccn1)Nc1ccc2c(c1)OCCO2
 : -5.6, 1.7, -5.3, 5.2, -0.4%, 2.4
CCOC(=O)c1ccc(NC(=O)CN2CCN(C(=O)C3CCCO3)CC2)cc1 (stereo not drawn)
 : -8.4, -0.5, -0.9, 11.6, -0.3%, -1.4
COc1ccc(C(=O)CN2C(=O)C(C)(C)Oc3ccc(C(=O)N4CCCCCC4)cc32)cc1
 : 9.7, -0.1, -3.0, -3.2, 1.7%, -3.0
CCc1ccc(C(=O)Nc2cccnc2Oc2ccc(Cl)cc2)cc1
 : 14.8, 3.1, 10.4, 14.1, 4.4%, -6.7
O=C(O)C(c1ccccc1)C1(O)CCC1 (stereo not drawn)
 : -8.1, -0.4, -9.4, -0.4, -3.5%, -2.5
COCCCNC(=O)C(=O)NCC(c1ccco1)N1CCN(c2ccc(OC)cc2)CC1 (stereo not drawn)
 : -12.6, -0.7, 22.9, 1.6, -1.1%, -1.3
Cc1ccccc1S(=O)(=O)NCc1ccc(N2CCN(C)CC2)cc1
 : -8.6, 3.2, 6.3, 2.4, 0.9%, -3.0
O=C(O)c1ccc(N=Nc2c(O)[nH]c3ccccc23)cc1
 : -6.3, -0.1, -16.1, -6.6, 1.0%, -2.0
CCCc1cc(=O)[nH]c(SCc2cc(=O)oc3c(C)c(C)ccc23)n1
 : -1.1, -0.5, 0.8, -5.0, 2.5%, -6.4
COc1ccc(NC(=O)C2(C)Cc3c(-c4cccc(C(N)=O)c4)ccnc3O2)cc1 (stereo not drawn)
 : x, -0.7, -1.2, 2.0, 12.2%, 7.6
CC(C)(C)c1cc(C(=O)Nc2ccccc2)ccn1
 : -10.1, 0.3, -10.8, -5.7, -2.4%, -3.8
O=C(COC(=O)c1ccco1)NC1CCCCC1
 : 0.3, -0.2, 1.0, -0.2, -0.5%, -1.5
CCOc1ccc(OCC)c(S(=O)(=O)NCc2ccccc2)c1
 : 19.3, 0.5, 4.4, 0.3, 0.0%, -3.8
COC(=O)C1=CN(Cc2ccc(C)cc2)C=C(C(=O)OC)C1c1ccc(F)c(F)c1
 : 39.4, 0.6, 2.2, 7.7, -0.4%, -0.1
COc1ccc(S(=O)(=O)Nc2ccc(S(=O)(=O)Nc3nc(C)cc(C)n3)cc2)cc1OC
 : -24.7, -0.4, 7.5, 3.8, 0.3%[38.3 µM], 2.7
COc1ccc(Cl)cc1NC(=O)COC(=O)C1COc2ccccc2O1 (stereo not drawn)
 : 13.4, 0.4, 2.0, -1.8, -1.6%, 6.0
CCN1CCCC1CNC(=O)c1cc2cc(OC)c(OC)cc2[nH]1 (stereo not drawn)
 : 4.2, -0.4, -8.8, -5.6, -0.6%, -3.0
CC1(C)Cc2nc3sc4c(N(CCO)CCO)ncnc4c3cc2CO1
 : 5.5, -0.2, 1.8, -1.2, -0.7%, 0.9
Cc1nn(CC(=O)NN)c(C)c1Br
 : -4.1, 0.6, -4.5, x, 0.8%, 6.5
ON1C(c2ccccc2)CC2(O)c3nonc3CCC12 (stereo not drawn)
 : -10.4, 0.5, 5.6, -6.4, -2.4%, -2.5
Cc1ccc(NC(=O)Nc2nnc(Cc3ccc([N+](=O)[O-])cc3)s2)cc1C
 : 6.7, 0.5, 1.3, 12.2, 15.7%, 1.0
O=C(O)CCNC(=O)c1cncc(Br)c1
 : 7.1, 0.4, 5.2, 4.3, 2.3%[38.3 µM], -0.2
Cc1ncsc1CCOC(=O)c1ccccc1
 : -30.0, 1.6, 9.4, -3.5, 0.9%, -1.7
Cc1noc(C)c1S(=O)(=O)Nc1ccc(C(=O)NC2CCCCC2)cc1
 : -6.9, -0.5, 9.5, 2.9, 0.2%, -0.6
CC(OC(=O)c1ccc2c(c1)OCO2)C(=O)NC1CCCCC1 (stereo not drawn)
 : 14.1, -0.7, -8.2, -4.6, 1.5%, -3.2
CCN(CC(=O)NCc1ccc(F)cc1)C(=O)C(C)Oc1cccc(Cl)c1 (stereo not drawn)
 : 17.6, -0.4, 8.0, 5.0, 1.7%, 0.2
Cc1ccc(-n2c(C)nn(Cc3ccc([N+](=O)[O-])cc3)c2=O)cc1
 : 14.0, -1.4, -11.9, -26.1, 4.1%, 1.0
O=C(COC(=O)Cc1ccc(Br)cc1)NCc1ccccc1
 : -3.3, -0.2, 3.8, 3.5, 1.3%, 0.3
C[C@H](CO)N1C[C@H](C)[C@@H](CN(C)Cc2cccc(C(=O)O)c2)OCc2cnnn2CCCC1=O
 : -5.5, 0.1, 3.7, 6.5, 2.0%, -1.9
Cc1cccc(C(=O)N2CCN(C(=O)c3cccc(C)c3)C(C)C2)c1 (stereo not drawn)
 : 35.0, -1.1, 0.5, 7.1, -1.2%, 0.9

# Single records, from the list above. Order of values: TRPML1 blocker, TRPML1 agonist, Six1-Eya2 blk, CtBP-E1A blk, PINK1 expr mod, D2 ag
# COCCCNC(=O)C(=O)NCC(c1ccco1)N1CCN(c2ccc(OC)cc2)CC1 (stereo not drawn) is entered as -12.6, -0.7, 22.9, 1.6, -1.1%, -1.3
# CC(C)(C)c1cc(C(=O)Nc2ccccc2)ccn1 is entered as -10.1, 0.3, -10.8, -5.7, -2.4%, -3.8
# CCC(=O)N1c2ccccc2CC1C(=O)NCCc1ccc(OC)cc1OC (stereo not drawn) is entered as -4.7, 0.3, x, x, 2.4%, x
# CCc1ccc(C(=O)Nc2cccnc2Oc2ccc(Cl)cc2)cc1 is entered as 14.8, 3.1, 10.4, 14.1, 4.4%, -6.7
# O=C(O)c1ccc(N=Nc2c(O)[nH]c3ccccc23)cc1 is entered as -6.3, -0.1, -16.1, -6.6, 1.0%, -2.0

# Screens (PubChem BioAssay)
